# Compound activity deposited in PubChem by National Center for Advancing Translational Sciences (NCATS).
# Menin-MLL FL inh: inhibitors of human menin-MLL interaction, wild-type MLL peptide; Fluorescence polarization, fluorescein-MLL peptide displacement from menin; 290,000 tested, under 10 active; FP activity change, % at 61.4 µM; inconclusive = falling polarisation curve, or a change in total fluorescence; inactive = total fluorescence flat and polarisation flat or rising; no compound was filed as active; the % refers to the polarisation; negative = inhibition;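 further: % of control where 0% means no effect; inhibitors lower the polarisation; unlabelled MLL peptide was the positive control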
# TRPML1 agonist: agonists of human TRPML1 channel | AID 624414 | 0.12% of 410,000 active | TRPML1-expressing cells, Ca2+ dye fluorescence, FDSS; host cell line not named in the record; reference of the full effect not given here | activation, % (no concentration beside the values) | Q9GZU1; in the data active = activation above about 50%; inconclusive = about 30% to 50%; inactive = below about 30%; further: 0% is about no effect; the text of the record puts the active cut at 80%
# Target sequence (Q9GZU1 whole entry, looked up): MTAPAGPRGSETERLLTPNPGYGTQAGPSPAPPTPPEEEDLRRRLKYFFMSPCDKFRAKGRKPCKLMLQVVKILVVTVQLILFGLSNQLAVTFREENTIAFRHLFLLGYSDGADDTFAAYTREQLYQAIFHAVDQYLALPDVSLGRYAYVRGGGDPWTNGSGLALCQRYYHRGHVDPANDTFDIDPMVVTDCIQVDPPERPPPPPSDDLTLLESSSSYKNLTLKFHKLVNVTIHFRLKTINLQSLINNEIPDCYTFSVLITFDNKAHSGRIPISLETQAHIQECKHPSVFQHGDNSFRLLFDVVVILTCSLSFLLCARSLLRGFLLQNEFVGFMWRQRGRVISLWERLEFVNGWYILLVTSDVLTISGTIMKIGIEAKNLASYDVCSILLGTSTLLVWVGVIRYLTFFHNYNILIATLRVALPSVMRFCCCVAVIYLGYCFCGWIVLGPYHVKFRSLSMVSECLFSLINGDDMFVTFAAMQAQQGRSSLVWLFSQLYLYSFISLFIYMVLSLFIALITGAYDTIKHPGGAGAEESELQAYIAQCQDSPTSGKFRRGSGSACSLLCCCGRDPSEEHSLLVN
#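 Agonist activity was taken from a 110 s kinetic Ca2+ dye read on the FDSS after pinning compounds onto TRPML1-DL cells. The cells were seeded at 1,500/well with Tet inducer, incubated about 16 h, then dye-loaded at room temperature.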
# gsp ag: activates gsp, the McCune-Albright syndrome mutation; Potency, µM (doses to about 76.9 µM), for inactives: at the highest dose activation (cAMP increase), actives largely listed as activators; gsp mutant cells, cAMP HTRF, 30 min; control for the full effect not named in the record; 0.13% of 340,000 active; active = well fitted activation curve with a large enough effect; inconclusive = small, poorly fitted or top-dose-only effect, or another doubt; inactive = no such curve, though single readings can be large or run the other way; cell line not stated here;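 further: phosphodiesterase inhibitor Ro 20-1724 added with compounds to block cAMP breakdown; potency means the concentration at half of the fitted maximal effect; nearly all actives have a fitted effect of over 60% in size; about a fifth of the inactives were tested at one dose only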
#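 Cells stably selected in G418 were plated at 2000/well, grown 16-24 hr, then given compounds in DMSO with the PDE inhibitor […] (300 uM solution added) for 30 min at 37C; cAMP was read by HTRF.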
# ClpP mod: qHTS Assay for Activators of ClpP; AID 651965, 2013; purified B. subtilis ClpP, FRET peptide cleavage, 20 min; 1.9% of 340,000 active; ATP-dependent Clp protease proteolytic subunit (Bacillus subtilis (strain 168)), P80244; Potency, µM (titrated, usually from 57.5 µM), for inactives: at the top dose activity change, negative = active; active = well fitted falling curve with a large enough effect; inconclusive = small, poorly fitted or top-dose-only effect; inactive = no such curve, though single readings can be large or run the other way; further: potency means the concentration at half of the fitted maximal effect; the source files actives as falling curves though it sought activators and does not explain the sign; nearly all actives have a fitted effect of over 65% in size; many hits overshoot -100%
# Target sequence (P80244 whole entry, looked up): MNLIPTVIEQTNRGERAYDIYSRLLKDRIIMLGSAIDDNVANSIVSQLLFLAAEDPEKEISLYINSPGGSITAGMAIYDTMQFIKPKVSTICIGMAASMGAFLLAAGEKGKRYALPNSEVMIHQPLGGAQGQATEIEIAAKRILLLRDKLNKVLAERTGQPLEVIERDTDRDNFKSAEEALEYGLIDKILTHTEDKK
#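 Buffer: 100 mM Tris/HCl pH8, 100 mM KCl, 0.05% low protease BSA, 2.5% glycerol, 0.01% Tween-20. ClpP 10 microg/mL final; 20 min RT; delta FRET normalized to ADEP and DMSO controls.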
# gsp antag: antagonizes gsp, the McCune-Albright syndrome mutation. 0.4% of 340,000 active. gsp-mutant cells, cAMP HTRF, 30 min; control for the full effect not named in the record. Potency, µM (series often up to 76.9 µM), for the others: at the top dose activity change, negative = inhibition, actives largely listed as inhibitors. AID 624288; active = falling curve of any shape with a large fitted effect; inconclusive = falling curve, mostly with a smaller effect; inactive = flat or rising curve; cell line not stated here;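 further: intracellular cAMP measured with PDE inhibitor Ro 20-1724 present during compound exposure; potency means the concentration at half of the fitted maximal effect; on the % scale 0 is the no-effect control and ±100 the full control effect; nearly all actives have a fitted effect of over 65% in size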
#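 Measurement of cellular cAMP by homogeneous time-resolved fluorescence following a 30 min compound exposure at 37C. The PDE inhibitor […] was present throughout; the assay buffer was DPBS with 0.05% BSA and 0.005% Tween 20.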
# TRPML1 inh: blocks the human TRPML1 channel. TRPML1-inducible cells, Ca2+ dye fluorescence, FDSS; active compounds read low; inhibition of EC80 agonist-evoked calcium signal. AID 624415. 0.02% of 390,000 active. activity change, negative = inhibition, % (no concentration beside the values); in the data active means activity change below about -50%; inconclusive means about -30% to -50%; inactive means above about -30%;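 further: stimulus is agonist 54-4 at its EC80 concentration; on the % scale 0 is the no-effect control and ±100 the full control effect; compound concentration not given in the record; the text of the record puts the active cut at -80%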
#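 Tet-induced TRPML1-DL cells loaded with Ca8 no-wash calcium dye were read kinetically on FDSS. Compound addition was followed by EC80 agonist 54-4 (4 uM final); inhibition was read over 110 s.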
# * hit, by the source's call; ? = inconclusive; / = no result given; & = joins results of further samples; [ ] = remark or other dose.
Structure	Menin-MLL FL inh	TRPML1 agonist	gsp ag	ClpP mod	gsp antag	TRPML1 inh
CCOC(=O)c1c(C2CC2)csc1NC(C)=O	1.2	1.8	7.7%	-10.0%	-1.8%	44.5
COC(=O)c1ccccc1NC(=O)N1CCC(n2c(C)nc3cccnc32)CC1	/	1.3	/	4.4%	/	-11.8
Cc1ccc(C)c(Nc2nn3c(=O)c4ccc(C(=O)NCc5cccnc5)cc4nc3s2)c1	1.2	-1.0	-12.5%	-1.1%	23.0%	-10.3
CCn1c(CC(=O)Nc2ccc(Cl)cc2)nnc1SCC(=O)N1CCOCC1	/	-0.1	-8.0%[15.4 µM]	0.8%	-17.1%	28.9
CCN(Cc1ccccc1)C(=O)CSc1nc(C)cc2c1C(=O)OC2	2.9	-1.0	-31.6%	-1.2%	-29.3%	3.4
O=C1C2CC=CCC2C(=O)N1Cc1nnc(-c2ccc(Cl)cc2)o1 (centres undefined)	-0.6	-0.1	7.2%	-7.8%	10.3%	-9.3
CCCCOc1ccc(C2CC(=O)NC2=O)cc1 (centres undefined)	3.6	-0.1	?	-0.1%	4.6%	2.6
Cc1c(CC(=O)O)c(=O)oc2c(C)c(OCc3ccc(F)cc3F)ccc12	2.9	0.6	12.5%	3.4%	-5.6%	-11.5
COc1ccc(C(=O)NCc2ccc(C)cc2)cc1S(=O)(=O)N1CCCc2ccccc21	0.6	3.1	-6.1%	-3.8%	-8.8%	4.5
COc1cc(C(=O)NNC(=O)Cc2ccc(S(=O)(=O)N3CCOCC3)s2)cc(OC)c1OC	3.3	-0.3	-33.2%[inhibitor]	9.1%	9.5%	-18.2
Fc1ccc(-c2nnc3ccc(N4CCCC4)nn23)cc1	1.3	-0.7	-35.8%[inhibitor]	?	-11.2%	4.9
CCN(C(=O)Cn1nc(Cc2cccnc2)c2ccccc2c1=O)c1ccccc1F	/	-0.3	/	-0.9%	/	-1.9
CCSCc1nnc(SCC(=O)Nc2cccc(C(C)=O)c2)n1C	0.5	0.5	11.4%[15.4 µM]	-1.3%	4.8%	-20.5
COc1cccc(S(=O)(=O)Nc2cccc(C(=O)N3CCCC3)c2)c1	/	-0.5	-0.2%	-0.5%	-1.6%	25.1
COc1ccc(C(=O)c2ccc(-c3ccc(OC)cc3)nc2)cc1	3.5	0.8	12.0%	-3.4%	7.2%	40.2
NS(=O)(=O)c1ccc(NC(=O)C2Cc3ccccc3N2C(=O)c2ccccc2)cc1 (centres undefined)	/	1.9	/	0.0%	/	-2.1
Cc1cc(N/N=C/c2ccccc2F)c2ccccc2n1	-4.2	0.0	-44.6%[inhibitor]	/	-0.4%	?
COc1ccc(NC(=O)c2ccc(CN3CCN(c4ccccc4)CC3)cc2)cc1	3.2	1.1	10.5%	-3.3%	-0.8%[15.4 µM]	-17.2
Fc1ccc(C(c2nnc(-c3ccccc3)o2)N2CCN(c3ccccc3)CC2)c(Cl)c1 (centres undefined)	/	1.7	/	-2.4%	/	6.3
C=CCn1c(CCNC(=O)c2ccco2)nc2ccccc21	/	-0.6	2.2%[15.4 µM]	-1.1%	7.0%	-14.9
O=C(N/N=C/c1cc(Br)ccc1O)c1cccc(N2CCCC2=O)c1	?	0.7	19.5%	1.9%	-26.1%	-14.4
CCn1nc(CC(=O)Nc2ccc(-n3cnnn3)c(C)c2)c2ccccc2c1=O	-0.4	-0.9	6.5%	-0.2%	4.1%	-2.3
CC(C)OCCCNC(=S)N1CCC(C(=O)c2ccc(Cl)cc2)CC1	-1.7	1.3	-31.9%[15.4 µM]	-0.4%	?	-5.9
CC(C)CC(C(=O)O)N1C(=O)C2C3c4ccccc4C(c4ccccc43)[C@@H]2C1=O (some centres undefined)	2.6	2.0	18.2%	-2.2%	-8.1%	1.2
O=C(O)c1cc2cc(F)ccc2[nH]1	3.6&3.8&-1.5&0.0	-0.3	/	0.1%	1.3%	12.2

Structure	Menin-MLL FL inh	TRPML1 agonist	gsp ag	ClpP mod	gsp antag	TRPML1 inh
COc1cc(OC)c2c(c1)C(=O)OC2OC (centres undefined)	-0.7	0.4	5.9%	-15.9%	-0.1%	-28.1
COc1cc(C(=O)NNC(=O)c2ccc(NC(=O)C(C)(C)C)cc2)cc(OC)c1OC	2.0	-0.6	3.6%[15.4 µM]	/	-2.7%	-2.8
Fc1cc(F)cc(NC(=S)N2CCC(c3ccccc3)C2)c1 (centres undefined)	-0.9	0.1	?	0.8%	5.9%	-2.8
COc1ccc(S(=O)(=O)N2CCCCC2)cc1NC(=O)CSc1nnc(C2CC2)n1C	/	-0.7	19.8%	0.0%	-1.9%	-2.1
COc1ccc(CCN(C)CC(O)c2ccccc2)cc1OC (centres undefined)	0.7	-0.4	1.7%[15.4 µM]	/	1.4%	20.3
CC1CC(C)CN(C(=O)CCNC(=O)c2ccccc2Cl)C1 (centres undefined)	/	0.7	-0.4%	0.2%	11.0%	20.7
CCc1ccc2c(c1)cc(CN(C(=S)Nc1ccccc1)C1CC1)c1nnnn12	-2.2	-0.3	-7.4%	2.1%	30.3%[activator]	1.8
CCCN(CCC)C(=O)CC(c1ccccc1)c1cc(Br)ccc1O (centres undefined)	9.5	2.7	?	-1.2%	-27.0%	9.6
CN(c1ccc(OCC(=O)NC2CCC(O)CC2)cc1)S(=O)(=O)c1ccc(Cl)cc1 (centres undefined)	/	-0.8	-1.2%	/	-5.6%	-20.0
COc1cc(OC)cc(-c2c(-c3cccs3)c3cc(-c4ccc(OC)cc4F)ccc3n2C)c1	/	0.2	/	4.1%	3.0%	5.4
COc1ccc2c(c1)CCc1c(C(=O)NCc3ccc(Cl)cc3)noc1-2	-0.3	1.6	1.9%	-6.3%	-3.1%	-11.0
Brc1ccc(-c2noc(-c3ccccc3)n2)o1	-1.3	0.4&2.5	18.1%	-3.9%&-2.6%	-1.6%	-2.5&2.0
O=C(c1ccccc1F)N1CCN(S(=O)(=O)c2ccc3ccccc3c2)CC1	-0.2	-0.1	-40.4%	-2.0%	-5.7%	4.9
CCNS(=O)(=O)c1cc(-c2nnc(OC)c3ccccc23)ccc1C	0.8	1.4	0.1%	1.0%	-4.5%	-10.0
O=C(Nc1cccc(S(=O)(=O)N2CCCCC2)c1)c1ccc2ccccc2n1	5.8	0.4	22.4%[15.4 µM]	-1.9%	-14.4%	48.8
O=C(Oc1cccc(-n2cnnn2)c1)c1sc2ccccc2c1Cl	3.6	0.3	4.9%	-1.4%	10.4%	0.0
CCOC(=O)c1c(S(=O)(=O)NCC(=O)Nc2ccc(C(C)=O)cc2)c(C)n(C)c1C	/	0.7	/	-1.0%	/	-17.7
O=C(/C=C/c1ccco1)N(Cc1cccc(Br)c1)C1CCS(=O)(=O)C1 (centres undefined)	8.9	0.0	19.4%[15.4 µM]	-0.3%	-7.9%	3.8
COc1ccccc1C(=O)N1CCN(Cc2cn[nH]c2-c2ccc(F)cc2F)CC1	0.6	0.1	-10.4%	-0.5%	4.5%	11.5
O=C(C1=C(O)C(=O)N(c2ncccn2)C1c1ccc(F)cc1)c1ccco1 (centres undefined)	?	0.6	34.8%[15.4 µM]	0.4%	1.0%	-6.4
O=C(O)Cn1c(-c2cscn2)nc2ccccc21	1.6	-0.2	10.2%	-26.7%	16.3%	-8.0
COc1ccc(S(=O)(=O)N(C)C[C@H]2Oc3c(NS(=O)(=O)c4ccc(F)cc4)cccc3C(=O)N([C@H](C)CO)C[C@@H]2C)cc1	/	-0.9	/	-0.5%	-23.9%	32.5
COc1ccc(NC(=O)N2CCN(C(=O)Nc3ccc(OC)cc3)CC2)cc1	3.6	0.4	3.2%	-1.3%	12.3%	-13.2
Cc1cnc(NC(=O)c2cccc(S(=O)(=O)N3CC(C)OC(C)C3)c2)s1 (centres undefined)	-1.4	-0.5	-4.8%	-5.3%	-7.3%	-5.3
CCOc1ccc(-c2nc3cc(NC(=O)COc4cccc(C)c4)ccc3o2)cc1	/	2.7	/	4.2%	/	-2.7

Structure	Menin-MLL FL inh	TRPML1 agonist	gsp ag	ClpP mod	gsp antag	TRPML1 inh
O=C(COC(=O)c1ccccc1O)NCCC1=CCCCC1	1.7	0.2	-4.1%[15.4 µM]	/	/	4.5
COc1ccc2c(Cl)c(-c3nnc(SCC(=O)c4ccccc4)n3C)sc2c1	0.9	1.2	-3.1%	0.8%	-21.0%	21.9
CN(CCC#N)C(=O)COC(=O)c1ccc(CNS(=O)(=O)c2ccc(F)c(Cl)c2)cc1	0.1	1.0	-10.8%	-1.0%	13.7%	15.3
COc1ccccc1Cc1nc2ccccc2nc1SCC(=O)N1CCc2ccccc21	/	-0.5	/	-0.7%	/	-11.4
CCOC(=O)c1[nH]c(C)c(CCC(=O)NCc2ccccc2C)c1C	/	0.7	/	-0.8%	/	26.1
COc1ccccc1C(=O)COC(=O)c1ccccc1O	-1.0	-0.4	-3.7%	/	6.6%	1.0
CCOC(=O)c1sc(NC(=O)c2ccc(S(=O)(=O)N3CCCCCC3)cc2)nc1-c1ccccc1	-1.0	0.4	7.5%	?	0.1%	4.3
O=C(O)c1cccc(S(=O)(=O)N2CC=C(c3ccccc3)CC2)c1	/	-0.2	-25.2%	-4.0%	-11.8%	-13.4
CCC(Sc1nc(-c2ccccc2)c(-c2ccccc2)[nH]1)C(=O)O (centres undefined)	3.1	1.9	1.9%	/	1.0%	-13.7
COc1ccc(N2CCN(C(=O)C3CCN(Cc4nc(-c5ccc(Cl)cc5)oc4C)CC3)CC2)cc1	/	0.4	/	-2.0%	/	0.6
O=[N+]([O-])c1cc2c(cc1CN1CCN(c3ccc(F)cc3)CC1)OCO2	2.0	2.1	-5.7%	-2.8%	-5.2%	3.1
O=C(O)c1ccc(N2C(=O)c3ccc(C(=O)c4cccc([N+](=O)[O-])c4)cc3C2=O)cc1	1.1	0.3	-22.5%	-2.6%	-7.6%	6.2
CC(=O)Nc1ccc(Nc2cc(C)nc(Nc3ccc(NC(C)=O)cc3)n2)cc1	/	1.4	5.7%	-4.6%	-1.4%	-0.3
O=C(Cn1cc(C(F)(F)F)ccc1=O)N1CCc2ccccc21	/	-0.3	3.4%	-1.1%	4.9%	28.4
O=c1c2[nH]c3cccc(Cl)c3c2ncn1CCN1CCCCC1	1.9	0.7	?	-22.7%	-3.1%	-9.1
CC(=O)Oc1cc2c(C(=O)NCCCN3CCOCC3)c(C)oc2c2ccccc12	0.0	-0.7	-34.6%[inhibitor]	-13.6%	-8.2%	1.6
